PINK1 expr mod: A Quantitative High throughput Screen to Identify Chemical Modulators of PINK1 Expression. PINK1 immunofluorescence, high-content cytometry, 24 h. Potency, µM (doses to about 76.6 µM), inactives show at the highest dose activation (PINK1 increase), hits mostly activators. 410,000 compounds, 0.2% hits. AID 624263, 2012; active = well fitted activation curve with a large enough effect; inconclusive = small, poorly fitted or top-dose-only effect; inactive = flat fitted curve, though single readings scatter; cell line not stated here;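 note: % of control where 0% means no effect; nearly all actives have a fitted effect of over 65% in size; a mitochondrial uncoupler was the plate control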
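Measures PINK1 amount and localization on or inside mitochondria by immunofluorescence. Stable cells get compounds at 5 concentrations for 24 hours before fixation and staining; CCCP controls included.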
ClpP mod: qHTS Assay for Activators of ClpP. ATP-dependent Clp protease proteolytic subunit (Bacillus subtilis (strain 168)), P80244. purified B. subtilis ClpP, FRET peptide cleavage, 20 min. Potency, µM (top dose mostly 57.5 µM), inactives show at the highest dose activity change, negative = active. 340,000 compounds, 1.9% hits. AID 651965, 2013; active = well fitted falling curve with a large enough effect; inconclusive = small, poorly fitted or top-dose-only effect; inactive = no such curve, though single readings can be large or run the other way; note: the source files actives as falling curves though it sought activators and does not explain the sign; nearly all actives have a fitted effect of over 65% in size; many hits overshoot -100%
Target sequence (P80244 whole entry, looked up): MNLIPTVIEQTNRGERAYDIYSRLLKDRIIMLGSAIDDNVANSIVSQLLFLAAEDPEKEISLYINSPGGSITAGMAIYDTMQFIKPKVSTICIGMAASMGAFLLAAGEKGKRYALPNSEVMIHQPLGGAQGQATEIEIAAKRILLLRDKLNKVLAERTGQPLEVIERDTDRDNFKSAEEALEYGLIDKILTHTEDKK
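Buffer: 100 mM Tris/HCl pH8, 100 mM KCl, 0.05% low protease BSA, 2.5% glycerol, 0.01% Tween-20. ClpP 10 microg/mL final; 20 min RT; delta FRET normalized to ADEP and DMSO controls.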
Active calls of the source: *; ? = inconclusive. Potency is the fitted concentration of half-maximal effect. Not all compounds are listed (hit frequency here may not be typical).

SMILES	PINK1 expr mod	ClpP mod
Cc1ccc(N(C)C(=O)c2sc3nc4n(c(=O)c3c2C)CCCC4)cc1C	-1.0%	1.0%
CC(C)C[C@H]1CN([C@@H](Cc2ccccc2)CN2CCC[C@H]2CN2C(=O)C(=O)NC[C@@H]2Cc2ccc(O)cc2)C(=O)C(=O)N1CCc1ccccc1	-0.7%	-1.5%
COc1ccc(/C=C/c2onc(C)c2S(=O)(=O)N2CCC(C(=O)N3CCCCC3)CC2)cc1	0.7%	-1.8%
O=C(NCc1ccco1)c1ccc2c(c1)N(Cc1ccccc1F)C(=O)c1ccccc1S2(=O)=O	0.8%	-2.6%
COc1ccc2c(c1)cc(CNc1ccc(OC)c(OC)c1)c(=O)n2CC(=O)Nc1ccccc1C	0.1%	2.4%
CC(C)Cn1nc(NC(=O)c2cccc(Cl)c2)c2cc3ccccc3nc21	-0.3%	26%
Cc1cc(C)cc(-n2ccnc(NCc3ccc(F)cc3)c2=O)c1	0.1%	-14%
COC(=O)[C@]12CCCCC=C1N(CCC1=CCCCC1)C(=O)[C@H](CC(=O)NCc1cccc(C(F)(F)F)c1)C2	25%	1.8%
CC(C)(C)C(=O)c1c(N)[nH]c(C(=O)c2ccccc2)c1-c1ccccc1Br	9.6%	1.6%
C#CCSc1nc(-c2ccccc2)c2cc(Cl)ccc2n1	1.3%	?
Cn1c2ccccc2c2cnn(CC(=O)NCc3ccc(Cl)cc3)c(=O)c21	2.7%	-16%
O=S(=O)(/N=C(/Sc1ccc(Cl)cc1)c1ccccc1)c1ccccc1	0.1%	?
Cc1ccc(C)c(NC(=O)CCc2c(C)nn(-c3ccc(N4CCCC4)nn3)c2C)c1	-0.4%	-2.0%
O=c1c2sc3ccccc3c2n(Cc2ccccc2)c(=O)n1CCc1ccccc1	-0.4%	-14%
O=C(Cn1c(=O)n(CC2CCC(C(=O)NCCc3ccccc3)CC2)c(=O)c2ccccc21)Nc1cccc(F)c1 (stereo not given)	4.1%	-13%
COc1cccc(Nc2nc3cc(C)ccc3nc2NS(=O)(=O)c2ccc(Cl)cc2)c1	-0.6%	-8.9%
O=S(=O)(NCc1csc(-c2ccccc2)n1)c1cccc(F)c1	0.3%	-1.6%
CC1CCN2c3cc(Cl)ccc3CC3(C(=O)OC(C)(C)OC3=O)C2C1 (stereo not given)	0.4%	-1.5%
C[C@@H]1Cc2[nH][nH]c(=O)c2[C@H](c2ccc(Cl)cc2)O1	-0.5%	0.0%
COc1cc(Cl)c(C)cc1Nc1nc2ccccc2n2cnnc12	-0.1%	-10%
Cc1ccc(-n2ncc3c(NCC(C)C)ncnc32)c(C)c1	1.3%	-16%
COc1ccc(Cc2c(-c3cccc(Br)c3)nc3cc(C)c(Br)c(C)n23)c(C)c1	2.2%	-1.3%
Nc1c(C(=O)Nc2ccccc2Cl)c2ccccn2c1C(=O)c1ccccc1	3.0%	-5.8%
CCOc1ccc(C2CC(=O)c3c([nH]c(C(=O)OC4CCCCCC4)c3C)C2)cc1 (stereo not given)	1.5%	-3.3%
CCCN(C(=O)CCn1cnc2onc(-c3ccc(F)cc3)c2c1=O)c1ccccc1C	4.7%	-0.9%

Compound profiles (already shown):
Record of `CC(C)(C)C(=O)c1c(N)[nH]c(C(=O)c2ccccc2)c1-c1ccccc1Br` : PINK1 expr mod: 9.6%; ClpP mod: 1.6%
Record of `CC(C)C[C@H]1CN([C@@H](Cc2ccccc2)CN2CCC[C@H]2CN2C(=O)C(=O)NC[C@@H]2Cc2ccc(O)cc2)C(=O)C(=O)N1CCc1ccccc1` : PINK1 expr mod: -0.7%; ClpP mod: -1.5%

The listing picks up; the 2 compounds before the break are reprinted first.
SMILES	PINK1 expr mod	ClpP mod
CCOc1ccc(C2CC(=O)c3c([nH]c(C(=O)OC4CCCCCC4)c3C)C2)cc1 (stereo not given)	1.5%	-3.3%
CCCN(C(=O)CCn1cnc2onc(-c3ccc(F)cc3)c2c1=O)c1ccccc1C	4.7%	-0.9%
O=c1c2cc3c(cc2nc2sc(Nc4ccc(F)c(Cl)c4)nn12)OCO3	0.1%	-2.8%
Cc1ccc2oc(=O)c3cc(C(=O)NCCCOC(C)C)sc3c2c1	1.0%	?
COc1ccc(CNC(=O)CCCn2c(=O)c3cccn3c3ccc(F)cc32)cc1OC	1.8%	-6.0%
CCC(=O)N1CCc2cc(S(=O)(=O)NCCC(=O)NC(C)c3ccccc3)ccc21 (stereo not given)	1.8%	-0.1%
Cc1cc[n+](CC(=O)c2ccc(F)cc2)cc1	1.2%	-15%
COc1ccc(-c2c(C#N)c(SCC(=O)Nc3ccc(C)cc3)nc(C)c2C(=O)Nc2ccccc2)cc1	0.9%	-9.8%
COc1ccc(Cn2cc(CN3CC(N4CCN(C5CCN(C)CC5)CC4)CS3(=O)=O)nn2)cc1 (stereo not given)	0.7%	2.5%
CCCS(=O)(=O)Nc1cccc(-c2cn3ccc(C)cc3n2)c1	1.9%	4.1%
Cc1ccc(Cl)cc1N1CCN(C(=O)c2cc3c(-c4ccccc4F)nn(C)c3s2)CC1	-0.1%	-9.1%
COc1cc(-c2noc(-c3ccc(NCC4CCCO4)c([N+](=O)[O-])c3)n2)cc(OC)c1OC (stereo not given)	0.8%	-0.8%
Cc1csc2nc(CCNS(=O)(=O)c3ccc(F)cc3)cn12	0.0%	0.2%
N#Cc1ccc(CSc2nc3c(c(=O)[nH]2)CCC3)cc1	0.2%	0.8%
CCOc1cccc(NC(=O)C2CC(=O)N(C)C(=Nc3ccc(F)cc3)S2)c1 (stereo not given)	0.3%	-9.5%
COc1ccc(-c2c3c(nc4sc(C(=O)Nc5cccc(OC)c5)c(N)c24)CC(C)(C)CC3=O)cc1	1.8%	-0.2%
O=C1NC[C@H](CCCCN2C[C@H](Cc3ccccc3)N(CCc3ccc(O)cc3)C(=O)C2=O)N(CCC2CCCCC2)C1=O	0.4%	2.9%
Cc1cccc(OCc2ccc(-c3nc(C#N)c(N4CCN(c5ccccc5)CC4)o3)o2)c1	-0.8%	-18%
CCc1ccc(S(=O)(=O)c2nnn3c2nc(Nc2cc(OC)ccc2OC)c2sccc23)cc1	5.8%	?
CC(C)(C)OC(=O)N1CCC(c2c(C(=O)N3CCN(c4ccc(Cl)cc4)CC3)cnn2-c2ccc(F)cc2F)CC1	1.8%	1.5%
Cc1nc2c(C(=O)NCc3ccccc3Cl)cnn2c(C)c1Cc1ccccc1	1.4%	?
CC(=O)c1ccc(Nc2nc3c(S(=O)(=O)c4ccccc4)nnn3c3ccc(Cl)cc23)cc1	1.4%	-6.5%
Cc1ccc2c(/C=C/c3ccc(N(C)C)cc3)ccnc2c1	4.2%	-2.8%
CCc1ccc(S(=O)(=O)Nc2cccc(-c3ccc(OC)nn3)c2)s1	3.9%	-0.9%
Cc1ccccc1NC(=O)c1c(NC(=O)c2ccccc2)sc2c1CCC2	0.9%	-0.5%
CCCn1c(=O)c2sccc2n2c(CCCC(=O)N3CCN(c4ccccc4OC)CC3)nnc12	1.2%	17%
COc1ccc(C2Nc3ccccc3C(=O)N2c2ccccc2)cc1COc1ccc(NC(C)=O)cc1 (stereo not given)	0.5%	4.3%

Quoted from the listing:
PINK1 expr mod, `Cc1ccc2oc(=O)c3cc(C(=O)NCCCOC(C)C)sc3c2c1` → 1.0%
ClpP mod, `Cc1cc[n+](CC(=O)c2ccc(F)cc2)cc1` → -15%
PINK1 expr mod, `CCCS(=O)(=O)Nc1cccc(-c2cn3ccc(C)cc3n2)c1` → 1.9%
PINK1 expr mod, `N#Cc1ccc(CSc2nc3c(c(=O)[nH]2)CCC3)cc1` → 0.2%
PINK1 expr mod, `O=C1NC[C@H](CCCCN2C[C@H](Cc3ccccc3)N(CCc3ccc(O)cc3)C(=O)C2=O)N(CCC2CCCCC2)C1=O` → 0.4%

Following part:
SMILES	PINK1 expr mod	ClpP mod
CSc1ccc(CCNC(=O)c2ccc(CS(=O)(=O)c3ccc(Br)cc3)o2)cc1	0.6%	-1.3%
COC(=O)c1cc(S(=O)(=O)N2CCN(c3cccc(C)c3)C(C)C2)cn1C (stereo not given)	0.1%	-1.1%
Cc1ccc(-n2nc(CO)c(C(=O)NCCC(C)C)n2)cc1C	8.4%	?
COc1ccc(-c2noc(-c3ccc(NC(C)c4ccccc4)c([N+](=O)[O-])c3)n2)cc1OC (stereo not given)	9.3%	-0.9%
Cn1c2ccccc2c2cnn(CC(=O)N3CCN(c4cccc(C(F)(F)F)c4)CC3)c(=O)c21	3.1%	-1.7%
CC(=O)C(=Cc1ccc(-c2ccccc2)cc1)C(=O)c1ccccc1	0.6%	-1.8%
Cc1cccc2cc(CN(C(=O)c3cccc(Cl)c3)c3ccccc3)c(=O)[nH]c12	0.5%	-0.3%
O=C(CN(CCc1c[nH]c2ccccc12)S(=O)(=O)c1ccccc1)N1CCCCCC1	0.4%	-1.3%
Cc1ccc(C)c(N2CCN(C(=O)C3CCN(C(=O)c4cc5sccc5n4C)CC3)CC2)c1	-1.9%	-0.5%
O=C(c1cc(-c2ccc(Cl)cc2)on1)N(Cc1ccc(F)cc1)Cc1ccco1	6.6%	0.6%
Cc1ccc2c(=O)c(C(=O)c3ccccc3)cn(CC(=O)Nc3ccccc3C)c2n1	-0.3%	-0.4%
COc1cc(NC(=O)CCn2cnc3ccccc3c2=O)cc(OC)c1	-4.1%	?
O=C(NCCCc1nc2ccccc2n1Cc1cccc(Cl)c1)C1CCCCC1	0.6%	-2.2%
CCN1C(=NCc2cccc(Cl)c2)N[C@@H](c2cccc(C(F)(F)F)c2)C(C(=O)OC)=C1C	0.2%	-2.8%
CCOc1ccc(NC(=O)c2cc3cc(C)ccc3n2C)cc1	0.8%	5.3%
CCC(c1nnnn1-c1ccc2c(c1)OCCO2)N1CCc2ccccc2C1 (stereo not given)	-0.3%	-0.4%
Cc1c(Cl)cccc1NC(=O)C(=O)NCCc1csc2nc(-c3ccccc3F)nn12	8.9%	-2.2%
O=C(O)CCn1cnc2onc(-c3cc(F)cc(F)c3)c2c1=O	0.3%	-1.7%
CCN1C(=O)c2ccccc2S(=O)(=O)c2ccc(C(=O)NCc3ccccc3Cl)cc21	3.6%	0.6%
COc1cccc(Cn2c(CNS(=O)(=O)c3ccc(C(C)(C)C)cc3)nc3cccnc32)c1	2.4%	-2.2%
Cc1cc(C)c2c(CC(=O)Nc3c(C(=O)c4ccc(F)cc4)oc4ccccc34)coc2c1	0.1%	-0.6%
O=C(C[n+]1cccc2cc(Cl)ccc21)c1cccc([N+](=O)[O-])c1	1.6%	-5.7%
Cc1ccccc1CCNCc1c(C(=O)O)c(C)n(Cc2c(F)cccc2Cl)c1C	-1.4%	-1.0%
O=C(CN1C(=O)COc2ccc(S(=O)(=O)N3CCCCC3)cc21)NCCc1ccc(Cl)cc1	1.0%	-1.4%
Cc1ccc(NC(=O)COc2ccc3oc4c(c3c2)CCCC4)c(C)c1	3.6%	0.5%
(listing goes on)
SMILES	PINK1 expr mod	ClpP mod
Cc1ccc(-c2nc3ccccc3o2)cc1NC(=O)c1cccc2c(Cl)cccc12	-1.1%	-1.4%
Cc1cc(C)cc(NC(=O)C(=O)NCCc2sc(-c3cccc(F)c3)nc2C)c1	2.1%	-2.8%
Cc1ccc(-c2nc(-c3cc4cccc(OCc5cccc(C)c5)c4oc3=O)no2)cc1	1.1%	-6.0%
CCc1ccc(CNC(=O)c2nn(-c3ccc(C)c(C)c3)nc2CO)cc1	0.0%	3.5µM*
COc1ccc(CNC(=O)c2nn(C)c3c2CSc2ccccc2-3)cc1	2.4%	-1.5%
Cc1cccc(Cn2cnc3c(oc4ccccc43)c2=O)c1	1.3%	-2.8%
Cc1ccc(Cn2cc(CN3CC(N4CCCC4)CS3(=O)=O)nn2)cc1 (stereo not given)	0.3%	-0.5%
CCOc1ccc(CCNC(=O)CCc2cn(Cc3ccc(C)cc3)c3ccccc23)cc1	-0.3%	?
CCC(=O)N1CCc2cc(CNC(=O)Nc3cc(OC)c(OC)c(OC)c3)ccc21	1.3%	-1.8%
CCOC(=O)CNS(=O)(=O)c1cc(-c2nnc(Nc3cccc(O)c3)c3ccccc23)ccc1C	2.8%	-11%
Cc1ccc(-c2cc3ncc(C(=O)c4cc([N+](=O)[O-])ccc4O)cn3n2)cc1	?	8.0%
COc1cc(CN(C(=O)c2ccccc2)c2ccccn2)cc(OC)c1OC	-0.2%	-0.8%
CC1=C(C(=O)N2CCN(c3cccc(C(F)(F)F)c3)CC2)C2(CCCCC2)OC1=O	0.3%	-5.7%
COCCOC(=O)C1=C(C)NC(=O)NC1c1cn(-c2ccccc2)nc1-c1ccccc1 (stereo not given)	2.0%	-2.6%
Cc1nn(C)c(C)c1CCNC(=O)Nc1ccccc1C(F)(F)F	-0.2%	-1.9%
CCc1cccc(C)c1NC(=O)CCn1nc(C)c2c(C)n(-c3ccccc3)nc2c1=O	-0.7%	-11%
COc1ccccc1CNC(=O)CN1C(=O)CSc2c1c(C)nn2-c1ccccc1	4.5%	1.2%
Cc1csc2nc(-c3cccc(NS(C)(=O)=O)c3)cn12	-5.2%	-14%
Cc1ccc(CSc2ncc(Cl)c(C(=O)NCCc3ccc(S(N)(=O)=O)cc3)n2)cc1	2.7%	-2.3%
CCN(CC)C(=O)Cn1c(=O)nc(-c2ccccc2F)c2cc(Cl)ccc21	0.3%	-6.4%
Cc1cccc(Cn2c(=O)n(Cc3ccccc3)c(=O)c3oc4ccccc4c32)c1	-1.3%	-5.3%

Assay outcomes deposited in PubChem by National Center for Advancing Translational Sciences (NCATS).
